# VACV Venus inh: vaccinia inhibition (Venus reporter) | Vaccinia virus Venus reporter expression, fluorescence | Potency, µM (doses to about 36.5 µM), without a hit: at the top dose activity change, negative = inhibition, usual class: inhibitors | AID 720580 | 330,000 tested, 0.46% active; active means well fitted inhibition curve with a large enough effect; inconclusive means small, poorly fitted or top-dose-only effect; inactive means no such curve, though single readings can be large or run the other way; tested in A549 cells; further: nearly all actives have a fitted effect of over 30% in size; inactives centre near -10
# Vaccinia mCherry: inhibitors of vaccinia virus infection (mCherry reporter signal); 310,000 tested, 0.63% active; Vaccinia virus mCherry reporter infection, fluorescence; about a quarter of the inactives have no number; Potency, µM (highest dose often 36.5 µM), for the others: top-dose activity change, negative = inhibition, hits mostly inhibitors; active = well fitted inhibition curve with a large enough effect; inconclusive = small, poorly fitted or top-dose-only effect; inactive = no such curve, though single readings can be large or run the other way; tested in A549 cells; further: nearly all actives have a fitted effect of over 35% in size; inactives centre near -10
# An asterisk follows results filed as active; i = inactive; ? = inconclusive; . = no result given; & = joins results of further samples; [ ] = another dose, or the depositor's remark. On the % scale 0 is the no-effect control and ±100 the full control effect; potency means the concentration at half of the fitted maximal effect.
# Sample of the layout:
canonical_smiles,Vaccinia mCherry,VACV Venus inh
CC(C)N(CCC(C(N)=O)(c1ccccc1)c1ccccn1)C(C)C (configuration not stated),-12%,-8%&-10%&-10%
COC(=O)Cc1cc(=O)n2[nH]c(SC)nc2n1,-10%,-7%
O=C(Nc1ccc2c(c1)OCO2)N1CCN(S(=O)(=O)c2ccc(Cl)cc2)CC1,-7%,-10%
COCCN1C(=O)c2oc3ccccc3c(=O)c2C1c1ccc(O)c(OC)c1 (configuration not stated),-2%,-4%
CC1C(=O)Nc2ccc(S(=O)(=O)N3CCCCC3)cc2NC1=O (configuration not stated),-8%,-11%
COc1cccc(/C=N/NC(=S)NCc2ccco2)c1OC,i[7.34 µM],8%[7.34 µM]

# All compounds of this part (from the top)
canonical_smiles,Vaccinia mCherry,VACV Venus inh
CC(C)N(CCC(C(N)=O)(c1ccccc1)c1ccccn1)C(C)C (configuration not stated),-12%,-8%&-10%&-10%
COC(=O)Cc1cc(=O)n2[nH]c(SC)nc2n1,-10%,-7%
O=C(Nc1ccc2c(c1)OCO2)N1CCN(S(=O)(=O)c2ccc(Cl)cc2)CC1,-7%,-10%
COCCN1C(=O)c2oc3ccccc3c(=O)c2C1c1ccc(O)c(OC)c1 (configuration not stated),-2%,-4%
CC1C(=O)Nc2ccc(S(=O)(=O)N3CCCCC3)cc2NC1=O (configuration not stated),-8%,-11%
COc1cccc(/C=N/NC(=S)NCc2ccco2)c1OC,i[7.34 µM],8%[7.34 µM]
Cc1c(Cl)cccc1-n1ncc(C(=O)N2CCN(c3ncccn3)CC2)c1C1CCN(C(=O)OC(C)(C)C)CC1,-2%,5%
CCN(CC)C(=O)c1cc(Cl)ccc1NC(=O)c1ccco1,-28%,-26%
O=C(CSc1n[nH]c(Cc2ccccc2)n1)Nc1ccccc1Br,-8%,-16%
N#C/C(=N/Nc1ccc([N+](=O)[O-])cc1)C(=N)N1CCCCC1,i,-13%
CC(=O)C1=C(O)CC(c2ccccc2)CC1=NCCc1c(C)[nH]c2ccccc12 (configuration not stated),-4%,-25%
O=C(CCc1nnc2ccc(NCc3ccc(F)cc3)nn12)NC1CCCC1,i,-12%
CC(C)n1nccc1N(Cc1ccc(Cl)cc1)S(=O)(=O)c1ccccc1,-14%,-7%
C#CCn1c2ccccc2c(=O)n1CCOc1ccccc1OC,-4%,-9%
Cc1ccc(C(=O)NNC(=O)CSc2nnc(-c3ccccc3)n2Cc2ccccc2)cc1,i,-8%
COc1ccc(C2=C(C)C(=O)N(Cc3ccc(C(=O)Nc4cc(C)ccc4C)cc3)S2(=O)=O)cc1,-15%,-6%
O=C(NCCC1CCCCN1S(=O)(=O)c1ccccc1)C(=O)NC1CCCC1 (configuration not stated),-19%,-14%
COc1ccc2c(c1)C13CCCC[C@@H]1C(C2)N(C)CC3 (some centres not stated),-19%,-19%
Clc1ccccc1CN1CCC(Cc2ccccc2)CC1,-23%,-17%
CC(C)CC(=O)Nc1ccc2c(c1)nc(CCN1CCCCC1)n2C,?,?

# Going on with the list.
canonical_smiles,Vaccinia mCherry,VACV Venus inh
NC(=O)C1CCN(C(=O)CSc2nc3ccccc3s2)CC1,-9%,-2%
COc1ccccc1CNc1nc2ccccc2c2nc(-c3cccnc3)nn12,-9%,0%
O=C(NCc1cccnc1)c1cc(-c2ccccc2)on1,i,-11%
CCC(=O)Nc1ccc2nc(SCc3ccccc3)sc2c1,-15%,-12%
CC1(C(=O)NNC(=O)c2ccc([N+](=O)[O-])cc2)CC1(Br)Br (configuration not stated),4%,-14%
COc1ccc(-c2c(C#Cc3ccsc3)c3cc(-c4ccc(CN5CCOCC5)cc4)ccc3n2C)cc1,-25%,3%
CCCc1ccc(Oc2cc(C)nc(N3CCOCC3)n2)cc1,i,-11%
CC(=O)N(Cc1ccccc1)c1c(N)nc(N)[nH]c1=O,-11%[7.34 µM],-9%[7.34 µM]
CCOC(=O)[C@]12Cc3ccccc3[C@H]1N(C)C(=O)c1cc(OC)ccc12,-5%,-15%
OC1/C(=C/c2ccccc2C(F)(F)F)N2CCC1CC2 (configuration not stated),i,-9%
Cc1ccc2nc(N3CCOCC3)c3nncn3c2c1,-9%,-12%
Cc1cc(C)n(-c2ccc(NC(=O)C3CCCCN3C(=O)c3ccc(C)s3)cc2)n1 (configuration not stated),-13%,-22%
Cc1cc(NC(=O)COn2nnc3ccc(Cl)cc32)no1,.,15%
COC(=O)COc1ccc(S(=O)(=O)Nc2ccccc2C(=O)OC)cc1,1%,-1%
O=C(NNS(=O)(=O)c1ccccc1Cl)C1COc2ccccc2O1 (configuration not stated),i,-9%
CCOC(=O)c1c(/N=C/c2ccc(C)cc2O)sc2c1CCN(C)C2,-7%,-11%
Cc1ccc(NC(=S)N/N=C/c2c(C)nn(-c3ccccc3)c2N2CCCC2)cc1,-16%,-7%
COCc1c(C(=O)N2CCN(C3CCCC3)CC2)cnn1-c1nccc(-c2cccs2)n1,-12%,-8%
CCOC(=O)Cc1c[nH]c2ccc([N+](=O)[O-])cc12,i,-16%
COc1ccc(C(C)(O)c2nc(-c3ccccc3OC)cs2)cc1 (configuration not stated),-15%,-19%

# Other entries
canonical_smiles,Vaccinia mCherry,VACV Venus inh
O=C(/C=C/[C@H]1O[C@@H](n2ccc(=O)[nH]c2=O)[C@H](O)[C@@H]1O)NCc1cccc2ccccc12,10%,3%
CCOc1ccccc1C(=O)N[C@H](C(=O)OCC(=O)Nc1nnc(-c2ccccc2)o1)C(C)C,i,8%
Cc1c(C#N)sc(C(N)=O)c1C,-8%,-13%
COc1ccc(Nc2nc(N)nc(SCc3nnc(C)s3)n2)cc1,-20%,-10%
Cc1cc(Cl)ccc1OCC(=O)NCC1Cc2cc(-c3cnccn3)ccc2O1 (configuration not stated),-30%,-19%
C#CCN(C[C@H]1[C@H](OC(=O)NC2CCCC2)[C@H](OC(=O)NC2CCCC2)C[C@H]2C(=O)N(c3ccccc3)C(=O)[C@@H]12)S(=O)(=O)c1ccc(C)cc1,-4%,-17%
CCOC(=O)c1ccccc1NC(=O)c1cn(CC)c2nc(C)ccc2c1=O,-3%,-3%
O=C(CCC(=O)Nc1nnc(C2CCCCC2)s1)Nc1ccc(F)cc1,i,-10%
COCCNC(=O)C(C)OC(=O)c1cc2occc2n1C (configuration not stated),-6%,-14%
CCOc1ccc(/C=N/Nc2ccccc2)cc1,-10%,-14%
COc1ccc(-c2nn(-c3ccccc3)cc2/C=C2/SC(=S)N(CCCC(=O)O)C2=O)c(C)c1,-11%,-13%
COc1cccc(NC(=O)CS(=O)(=O)c2cccc3nsnc23)c1,i,-1%
O=S(=O)(CCS(=O)(=O)c1ccccc1)c1ccccc1,?,-29%
O=C(NC1CCSc2ccccc21)c1ccc(F)cc1 (configuration not stated),i,4%
COc1ccc(-c2noc(CC(=O)N(C)c3cc(Cl)c(OC)cc3OC)n2)cc1,-14%,-18%
CC1(c2ccccc2Cl)NC(=O)N(CC(=O)Nc2ccccc2OC(F)F)C1=O (configuration not stated),-18%,-14%
CCN(CC)CCOc1ccc(C=NNc2nc3c([nH]2)c(=O)n(C)c(=O)n3C)cc1,-14%,-17%
CCOC(=O)N1CCN(S(=O)(=O)c2ccc(C(=O)Nc3nc4c(s3)CC(C)CC4)cc2)CC1 (configuration not stated),-13%,-6%
CCCc1nc2ccc(Cl)cn2c1Cc1ccccc1OC,4%,-7%
c1csc(C2CCCN2c2nc3nonc3nc2NC2CC2)n1 (configuration not stated),-2%,7%

# (continued)
canonical_smiles,Vaccinia mCherry,VACV Venus inh
CC(=O)Nc1c(C)nn(-c2ccccc2)c1N1CCC(C(=O)Nc2cc(Cl)ccc2C)CC1,-5%[7.34 µM],-11%[7.34 µM]
Cc1c(OCC(=O)N2C[C@H]3C[C@@H](C2)c2cccc(=O)n2C3)ccc2c3c(c(=O)oc12)CCCC3,-11%,-14%
CC(C)c1ccc(S(=O)(=O)N2CCC(C(=O)NCc3ccco3)CC2)cc1,-6%,-20%
O=C(COc1ccc(C2SCCS2)cc1)Nc1ccc(Cl)cc1,i,19%
CCc1c(O)nc(SCC(=O)Nc2ccccc2C)n(-c2ccc(C)cc2)c1=O,-19%,-9%
COc1cc(-c2nc3ccccn3c2Nc2ccccc2C)ccc1O,-10%,-7%
CN(C)c1ccc(CN2CCOc3ccc(CN4CCC(O)(c5cccnc5)CC4)cc3C2)cc1,-19%,-20%
COc1ccc(CN(C)C(=O)c2ccc(OCC(=O)N3CCOCC3)c(OC)c2)cc1,-21%,-9%
CC1Cc2cc(S(=O)(=O)NCc3ccc(N(C)C)cc3)ccc2N1C(=O)C1CCC1 (configuration not stated),-21%,-9%
COc1ccccc1OCCNC(=O)c1cccs1,.,-10%
O=C(CSc1nc(O)cc(=O)n1-c1ccccc1)Nc1ccc2c3c(cccc13)CC2,i,4%
Cc1c(NC2=NC(C)(C)Cc3ccccc32)c(=O)n(-c2ccccc2)n1C,.,-20%
Cc1cc(C)cc(N(CC(=O)NCc2ccccc2Cl)S(=O)(=O)c2c(C)[nH]c(=O)[nH]c2=O)c1,-1%[7.34 µM],0%[7.34 µM]
Cc1cccc(C)c1NC(=O)Nc1nnc([C@@H]2C[C@H](O)[C@@H](CO)O2)s1,24%,-2%
Nc1ncnc(N)c1N=Nc1ccccc1,?,?
O=C(c1ccc2c(c1)N(Cc1ccccc1F)C(=O)c1ccccc1S2(=O)=O)N1CCc2ccccc21,-2%,-10%
Cc1cccc(C)c1C(O)c1ncc(-c2ccc(F)cc2)[nH]1 (configuration not stated),11%,-6%
CCOc1cc(CO)cc(Br)c1OCC(=O)O,-14%,-13%
O=C(COc1ccc(Cl)cc1)Nc1ccc2c(c1)C(=O)NC2=O,-21%,-13%
CC1CCCN(C2=C(NS(=O)(=O)c3ccc(Cl)cc3)C(=O)c3ccccc3C2=O)C1 (configuration not stated),?,-19%

# Later entries
canonical_smiles,Vaccinia mCherry,VACV Venus inh
COc1ccccc1NC(=O)Cn1nnc(C(=O)NCc2ccc3c(c2)OCO3)c1N,2%[7.34 µM],20%[7.34 µM]
Cc1ccc(-n2ncc(C(=O)NCc3ccccn3)c2C2CCN(C(=O)OC(C)(C)C)CC2)cc1C,-18%,-6%
O=C(Nc1cnc2ccccc2c1)c1ccncc1,-2%,-19%
CC1CCN(c2ccc(C(=O)NCc3ccco3)cc2[N+](=O)[O-])CC1,i,-20%
COc1ccc(CNC(=O)COC(=O)c2cccnc2Nc2cccc(C(F)(F)F)c2)cc1,0%,-8%
O=C(c1ccco1)N1CCN(C(=O)C2CCN(S(=O)(=O)c3cccc4nsnc34)CC2)CC1,-7%,-21%
CC(OC(=O)c1cccc(N(C)C)c1)C(=O)N1CCc2ccccc2C1 (configuration not stated),i,0%
CCCCOc1ccc(Cn2c(=O)oc3ccccc32)cc1,?,-22%&-14%
CCOc1ccc(-n2c(SCC(=O)Nc3cc(C)on3)nc3c(c2=O)SCC3)cc1,-20%,-15%
O=C(NCCc1ccccc1)Nc1nnc([C@H]2C[C@H](O)[C@@H](CO)O2)s1,16%,4%
COC(=O)c1sccc1NC(=O)c1c(C)cc(=O)oc1C,.,-11%
CCOCCCNC(=O)c1ccc(CS(=O)(=O)Cc2ccccc2F)o1,-14%,-9%
COc1ccccc1N1CCN(C(=O)c2c(C)noc2C)CC1,10%,2%
COc1ccc(NC(=O)C2CCN(S(C)(=O)=O)CC2)cc1Cl,-15%,0%
COc1ccc2nc(N3C(=O)CC(Cc4ccc(C)cc4)C3=O)sc2c1 (configuration not stated),-4%,1%
Cc1ccc(C(=O)OCC(=O)Nc2ccc(C)c(S(=O)(=O)N3CCCCC3)c2)c(O)c1,?,-8%
OCC[C@@H]1C[C@H](O)[C@@H](O)[C@@]2(Cc3ccccc3CCO2)O1,i,-10%
Cc1cn(C2CCCCC2)c(=O)[nH]c1=O,i,-9%
COc1ccc(S(=O)(=O)N2CCN(CC(O)COc3ccc(CC#N)cc3)CC2)cc1OC (configuration not stated),-17%,-28%
Cc1ccc(N=Cc2sc(O)c3ccccc23)cc1,-14%,-8%

# (more compounds)
canonical_smiles,Vaccinia mCherry,VACV Venus inh
O=C(CN1C(=O)c2ccccc2C1=O)N1CCN(C2c3ccccc3-c3ccccc32)CC1,-19%,-2%
COc1ccc(NC(=O)c2sc3nc4c(cc3c2N)CN(C(C)C)CC4)c(OC)c1,-20%,-12%
O=C(CSc1nnc(-c2ccncc2)n1-c1ccccc1)N1CCN(c2ccc(Cl)cc2)CC1,-12%,-5%
Cc1ccc(C(=O)Nc2ccc([N+](=O)[O-])cn2)o1,i,-10%
Cc1ccccc1NC1=NCC(c2ccc([N+](=O)[O-])cc2)S1 (configuration not stated),11µM*,13µM*
Nc1nc2ccccc2n1S(=O)(=O)c1ccc([N+](=O)[O-])cc1,-26%,-9%
CCOC(=O)c1c(NC(=O)Nc2ccc(C)cc2)sc2c1CCN(C)C2,-2%,-5%
O=C(CN(C(=O)c1csnn1)c1cccc(Cl)c1)NC1CCCC1,-6%,-4%
Cc1cc2cc(CNS(=O)(=O)N(C)C)ccc2[nH]1,-7%,-8%
CCOC(=O)c1c(NC(=O)COc2ccccc2C#N)sc2c1CC(C)(C)NC2(C)C,?,?
